# Vaccinia inh = blocks a specific stage of Vaccinia orthopoxvirus infection, primary screen, cell-based, single point; activity change (mCherry), % (no concentration beside the values); AID 1053133, 2014; 0.01% of 89,000 active; Vaccinia-infected cells, mCherry/Venus stage reporter fluorescence; stronger effect = lower value; some inactives read as strong as hits;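 active means mCherry past -33% and 40 or more points under the early reporter, replicates agreeing; inconclusive means past -33% without that gap or agreement; tested in A549 cells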;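 further: scaled between vehicle wells and reference inhibitor wells; 23 nL library stock went into each well; one replicate is shown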
# Vaccinia inh Venus = also measured in Vaccinia inh; calls as there; activity change (Venus), %; measured here: Venus reporter, other viral stage;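 negative = less Venus signal; first of two replicates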
# * hit, by the source's call; ? = inconclusive; / = not tested or not shown; & = joins results of further samples.
# Sequence of screens – Vaccinia inh | Vaccinia inh Venus
- COc1cccc(NC(=O)N(C)C[C@@H]2Oc3cc(/C=C/c4ccccc4)ccc3S(=O)(=O)N([C@H](C)CO)C[C@@H]2C)c1
    ? | /
- Cc1ccc(S(=O)(=O)N(C)C[C@@H]2Oc3ccc(NC(=O)c4ccncc4)cc3CC(=O)N([C@H](C)CO)C[C@H]2C)cc1
    8 | -2
- C[C@H](CO)N1C[C@H](C)[C@H](CN(C)C(=O)c2ccc3c(c2)OCO3)Oc2ncc(/C=C/c3ccccc3)cc2C1=O
    -19 | -11
- Cc1cc(C(=O)Nc2cccc3c2O[C@H](CN(C)Cc2ccc(C(F)(F)F)cc2)[C@H](C)CN([C@@H](C)CO)C3=O)n(C)n1
    -5 | -7
- COc1cccc(S(=O)(=O)N(C)C[C@@H]2OCc3ccccc3-c3c(n(C)c4ccccc34)C(=O)N([C@H](C)CO)C[C@@H]2C)c1
    ? | /
- COc1ccccc1NC(=O)N1CC(=O)N2[C@@H](CO)[C@@H](c3ccc(C#CC(C)C)cc3)[C@@H]2C1
    4 | 4
- CO[C@@H]1CC[C@H]2CCOc3c(C#N)cccc3C(=O)N(C)C[C@@H](OC)[C@@H](C)C(=O)N(C)C[C@H]1O2
    16 | 14
- CO[C@@H]1CN(C)C(=O)c2ccc(NC(C)=O)cc2OC[C@@H](C)N(Cc2ccc(-c3ccccn3)cc2)C[C@H]1C
    -24 | -14
- CCCNC(=O)Nc1ccc2c(c1)C(=O)N(C)[C@@H]1CC[C@H](CC(=O)NCCCN(C)C)O[C@H]1CO2
    3 | -8
- CCCNC(=O)N1CC2(CN(C)C2)c2c(n(C)c3cc(OC)ccc23)[C@H]1CO
    8 | -6
- C[C@@H]1CN([C@@H](C)CO)C(=O)c2cc(C#C[C@@H](C)O)cnc2O[C@H]1CN(C)C(=O)Cc1ccncc1
    22 | 11
- COCC(=O)N(C)C[C@@H]1Oc2ncc(-c3ccccc3F)cc2C(=O)N([C@@H](C)CO)C[C@@H]1C
    3 | 9
- C[C@@H]1CN([C@H](C)CO)C(=O)c2cc(C#CC3CC3)cnc2O[C@H]1CN(C)Cc1ccccc1C(=O)O
    14 | 6
- CS(=O)(=O)N1C[C@@H](O)COC[C@H]2O[C@H](CC(=O)NCc3ccccc3)CC[C@@H]21
    0 | 7
- O=C(N[C@H]1C=C[C@H](CC(=O)N2CCOCC2)O[C@H]1CO)c1ccc2c(c1)OCO2
    3 | 6
- O=C(Nc1ccc(C(F)(F)F)cc1)N1[C@@H]2CNC[C@H]1C2c1ccc(-c2cccnc2)cc1 (some centres undefined)
    -13&-3 | 1&3
- CCC(=O)N1[C@H](CN(C)C(C)=O)[C@H](c2ccc(C3=CCCC3)cc2)[C@@H]1CO
    1 | 6
- C[C@@H]1CCCCO[C@@H](CN(C)C(=O)Nc2cccc3ccccc23)[C@H](C)CN([C@@H](C)CO)C(=O)c2cc(NC(=O)Cc3ccccc3)ccc2O1
    21 | 13
- COc1cccc(-c2ccc([C@@H]3[C@@H](CO)N4C(=O)CN(C(=O)C5CCC5)C[C@H]34)cc2)c1
    -23 | -21
- CC(=O)N[C@H]1CC[C@H](CCNC(=O)C2CCC2)O[C@H]1CO
    0 | 5
- Cc1ccc(S(=O)(=O)N(C)C[C@H]2OCCCC[C@H](C)Oc3ccc(NS(C)(=O)=O)cc3C(=O)N([C@@H](C)CO)C[C@@H]2C)cc1
    1 | 1
- CCN(C[C@H]1[C@H](c2ccccc2)[C@@H](CO)N1S(C)(=O)=O)C(=O)C1CC1
    7 | 13
- C[C@H]1CN([C@@H](C)CO)C(=O)c2cccc(NS(=O)(=O)c3cccs3)c2O[C@@H]1CN(C)CC1CCCCC1
    3 | 4
- C[C@H](CO)N1C[C@H](C)[C@H](CN(C)C(=O)CCC(F)(F)F)OCCCC[C@H](C)Oc2ccc(NC(=O)c3ccccc3)cc2C1=O
    -21 | -21
- O=C(c1cccc(F)c1)N1CC(=O)N2[C@H](CO)[C@@H](c3ccc(-c4ccccc4F)cc3)[C@H]2C1
    ? | /
- COC(=O)C[C@@H]1CC[C@@H]2[C@H](COc3ccc(NC(=O)c4ccc(F)c(F)c4)cc3C(=O)N2C)O1
    -3 | -8
- COc1ccc(NC(=O)Nc2ccc3c(c2)C(=O)N([C@@H](C)CO)C[C@@H](C)[C@H](CN(C)Cc2ccc(Cl)c(Cl)c2)OCCCC[C@@H](C)O3)cc1
    -28 | -12
- CCC(=O)N1CC2(C1)[C@@H](c1ccccc1)[C@@H](CO)N2Cc1cc(F)ccc1F
    -3 | 0
- C[C@H]1CN([C@@H](C)CO)C(=O)c2ccccc2-c2ccccc2CO[C@@H]1CN(C)C(=O)Nc1cccc(F)c1
    6 | 1
- C[C@H]1CCCCO[C@H](CN(C)C(=O)Nc2ccccc2)[C@@H](C)CN([C@@H](C)CO)C(=O)c2cc(NC(=O)c3ccncc3)ccc2O1
    1 | -6

# Brought forward from above: four entries, then new ones.
# Sequence of screens – Vaccinia inh | Vaccinia inh Venus
- COc1ccc(NC(=O)Nc2ccc3c(c2)C(=O)N([C@@H](C)CO)C[C@@H](C)[C@H](CN(C)Cc2ccc(Cl)c(Cl)c2)OCCCC[C@@H](C)O3)cc1
    -28 | -12
- CCC(=O)N1CC2(C1)[C@@H](c1ccccc1)[C@@H](CO)N2Cc1cc(F)ccc1F
    -3 | 0
- C[C@H]1CN([C@@H](C)CO)C(=O)c2ccccc2-c2ccccc2CO[C@@H]1CN(C)C(=O)Nc1cccc(F)c1
    6 | 1
- C[C@H]1CCCCO[C@H](CN(C)C(=O)Nc2ccccc2)[C@@H](C)CN([C@@H](C)CO)C(=O)c2cc(NC(=O)c3ccncc3)ccc2O1
    1 | -6
- COc1ccc(S(=O)(=O)N(C)C[C@H]2OCCCC[C@H](C)Oc3ccc(NC(=O)c4ccncc4)cc3C(=O)N([C@@H](C)CO)C[C@H]2C)cc1
    5 | 0
- CO[C@@H]1CN(C)C(=O)c2ccc(NC(C)=O)cc2OC[C@@H](C)N(C(=O)c2ccc(F)cc2)C[C@@H]1C
    -3 | -2
- COc1ccc(C#Cc2cnc3c(c2)C(=O)N([C@@H](C)CO)C[C@H](C)[C@@H](CN(C)C(C)=O)O3)cc1
    13 | 12
- CCC(=O)N1CC2(C1)[C@H](c1ccc(-c3ccccc3)cc1)[C@H](CO)N2S(C)(=O)=O
    -10 | 0
- CO[C@H]1CN(C)C(=O)c2cc(NC(=O)c3nc4ccccc4s3)ccc2OC[C@@H](C)N(Cc2ccncc2)C[C@H]1C
    -23 | -22
- CN(C)CC#Cc1ccc([C@@H]2[C@@H](CO)N3CCCCN(S(=O)(=O)c4ccccc4F)C[C@@H]23)cc1
    -2 | -14
- COc1ccc(CN2[C@H](CO)[C@H]3c4ccccc4N(C(=O)Nc4ccccc4)C[C@H]32)cc1
    ? | /
- COc1ccc(S(=O)(=O)Nc2ccc3c(c2)C(=O)N([C@@H](C)CO)C[C@H](C)[C@@H](CN(C)C(=O)NC(C)C)OCCCC[C@H](C)O3)cc1
    8 | 3
- C[C@@H]1CN([C@H](C)CO)C(=O)c2cc(NC(=O)Cc3ccccc3)ccc2O[C@H]1CN(C)CC1CC1
    40 | 18
- COc1ccc(CN(C)C[C@H]2Oc3c(NC(=O)Nc4ccccc4)cccc3C(=O)N([C@@H](C)CO)C[C@H]2C)cc1
    -5 | -2
- CO[C@@H]1CN(C)C(=O)c2cc(NC(=O)NC(C)C)ccc2OC[C@H](C)N(C)C[C@H]1C
    -4 | -6
- C[C@@H]1CN([C@@H](C)CO)S(=O)(=O)c2ccc(C#Cc3ccccc3)cc2O[C@@H]1CN(C)C(=O)Nc1ccc2c(c1)OCO2
    ? | /
- N#C[C@H]1[C@H](c2ccc(-c3ccc(F)cc3)cc2)[C@H](CO)N1C(=O)Cc1ccccc1
    -25 | -16
- COCC(=O)N1C[C@@H]2[C@H](c3ccccc31)[C@H](CO)N2C(=O)C1CCCC1
    11 | 18
- CO[C@@H]1CN(C)C(=O)c2ccc(NC(=O)NC3CCCCC3)cc2OC[C@@H](C)N(CCc2ccccc2)C[C@H]1C
    -18 | 2
- COc1ccc(NC(=O)Nc2ccc3c(c2)[C@@H]2C[C@H](CC(=O)NC4CCCC4)O[C@H](CO)[C@@H]2O3)cc1
    7 | 1
- C[C@H](CO)N1C[C@H](C)[C@H](CN(C)C(=O)Nc2ccc(C(F)(F)F)cc2)Oc2ncc(-c3ccc(C#N)cc3)cc2C1=O
    ? | /
- CS(=O)(=O)N1[C@H](C#N)[C@H](c2ccccc2-c2ccccc2F)[C@@H]1CO
    -3 | -5
- C[C@@H]1CCCCO[C@H](CN(C)Cc2ccncc2)[C@@H](C)CN([C@@H](C)CO)C(=O)c2cc(NC(=O)Nc3ccc4c(c3)OCO4)ccc2O1
    -12 | -9
- C[C@@H]1CN([C@@H](C)CO)C(=O)Cc2cc(NS(=O)(=O)c3ccccc3)ccc2O[C@@H]1CN(C)Cc1ccc(-c2ccccc2)cc1
    ? | /
- C[C@@H]1CN([C@H](C)CO)C(=O)Cc2cc(NC(=O)C3CC3)ccc2O[C@H]1CN(C)S(=O)(=O)c1ccccc1
    5 | 15
- CN(C)CC(=O)Nc1ccc2c(c1)[C@H]1C[C@@H](CC(=O)NCC3CC3)O[C@H](CO)[C@H]1O2
    4 | 7
- CCC(=O)N(C)C[C@H]1Oc2ncc(-c3ccccc3F)cc2C(=O)N([C@@H](C)CO)C[C@@H]1C
    2 | 0
- COCCNC(=O)C[C@H]1CC[C@H]2[C@@H](COC[C@@H](O)CN2Cc2cccc(-c3ccncc3)c2)O1
    8 | 7
- CCS(=O)(=O)N1CC2(CN(Cc3ccc4c(c3)OCO4)[C@@H](CO)c3c2c2ccc(OC)cc2n3C)C1
    3 | -6
- C[C@H]1CN([C@@H](C)CO)C(=O)c2cc(NS(=O)(=O)c3cn(C)cn3)ccc2O[C@H]1CN(C)S(=O)(=O)c1cccs1
    33 | 27
- C[C@H](CO)N1C[C@H](C)[C@@H](CN(C)C)Oc2c(NS(C)(=O)=O)cccc2C1=O
    12&15 | 5&19
- C[C@H]1CN([C@@H](C)CO)C(=O)c2cc(NS(=O)(=O)c3ccc(F)cc3)ccc2O[C@@H]1CN(C)C(=O)Nc1ccc2c(c1)OCO2
    5 | -3
- O=C(Cc1ccncc1)NCC[C@H]1CC[C@H](NC(=O)C2CCCC2)[C@H](CO)O1
    -13 | 4
- CCCN(C)C[C@@H]1Oc2cc(-c3ccc(C)cc3)ccc2S(=O)(=O)N([C@@H](C)CO)C[C@@H]1C
    -21 | -18

# Sequence of screens – Vaccinia inh | Vaccinia inh Venus
- C[C@@H]1CCCCO[C@@H](CN(C)C)[C@@H](C)CN([C@@H](C)CO)C(=O)c2cc(NC(=O)CCC(F)(F)F)ccc2O1
    0 | 3
- CCCNC(=O)N(C)C[C@H]1Oc2cc(-c3ccccc3F)ccc2S(=O)(=O)N([C@@H](C)CO)C[C@@H]1C
    ? | /
- C[C@H]1CN([C@@H](C)CO)C(=O)Cc2cc(NC(=O)CCN3CCOCC3)ccc2O[C@@H]1CN(C)CC1CCCCC1
    -1 | 11
- C[C@@H]1CN([C@H](C)CO)C(=O)c2cc(C3=CCCC3)cnc2O[C@H]1CN(C)C(=O)Nc1cccc(F)c1
    3 | 7
- C[C@@H]1CN([C@@H](C)CO)C(=O)c2cc(NC(=O)Nc3cccc4ccccc34)ccc2O[C@H]1CN(C)Cc1ccc(Oc2ccccc2)cc1
    -33 | -24
- C[C@@H]1CN([C@H](C)CO)C(=O)c2cc(NS(=O)(=O)c3ccc(F)cc3)ccc2O[C@@H]1CN(C)Cc1ccc(-c2ccccc2)cc1
    ? | /
- CCC(=O)Nc1ccc2c(c1)OC[C@H](C)N(CC1CC1)C[C@@H](C)[C@H](OC)CN(C)C2=O
    6 | 6
- C[C@H]1CCCCO[C@H](CN(C)C(=O)c2ccccc2)[C@@H](C)CN([C@@H](C)CO)C(=O)c2cc(NC(=O)Nc3ccc4c(c3)OCO4)ccc2O1
    -5 | -2
- C[C@@H]1CCCCO[C@@H](CN(C)C(=O)c2ccccc2)[C@@H](C)CN([C@@H](C)CO)C(=O)c2cc(NS(C)(=O)=O)ccc2O1
    15 | 15
- O=C(O)C[C@H]1C[C@H]2c3cc(NC(=O)Nc4ccccc4F)ccc3O[C@H]2[C@@H](CO)O1
    3 | 2
- COCc1cn(CC[C@@H]2CC[C@@H](NC(=O)CCN3CCCCC3)[C@@H](CO)O2)nn1
    29 | 22
- CC(C)CC#Cc1cnc2c(c1)C(=O)N([C@@H](C)CO)C[C@H](C)[C@H](CN(C)C(=O)c1ccc(F)cc1)O2
    2 | 1
- CCC(=O)N(C)C[C@@H]1Oc2cc(C#CCN(C)C)ccc2S(=O)(=O)N([C@@H](C)CO)C[C@H]1C
    6 | -1
- CC(C)NC(=O)Nc1ccc2c(c1)CC(=O)N([C@@H](C)CO)C[C@@H](C)[C@H](CN(C)C(=O)Nc1ccccc1)O2
    15 | 21
- C[C@H](CO)N1C[C@H](C)[C@H](CN(C)C(=O)C2CCCCC2)Oc2cc(-c3ccccc3)ccc2S1(=O)=O
    -33 | -25
- CCCN(C)C[C@@H]1Oc2cc(-c3ccncc3)ccc2S(=O)(=O)N([C@@H](C)CO)C[C@@H]1C
    13 | 0
- O=C(c1ccc(F)cc1)N1CC[C@H]2[C@H](CO)Nc3ccc(C#Cc4ccccc4F)cc3[C@H]21
    -26 | -17
- COc1ccc(NC(=O)Nc2ccc3c(c2)C(=O)N([C@H](C)CO)C[C@H](C)[C@H](CN(C)C(=O)Nc2ccc(OC)cc2)OCCCC[C@H](C)O3)cc1
    24 | 6
- CN(C)C(=O)C[C@H]1CC[C@@H](NS(=O)(=O)c2ccccc2)[C@@H](CO)O1
    -11 | -9

# A run of entries from the list above, for reference:
# Sequence of screens – Vaccinia inh | Vaccinia inh Venus
- COc1ccc(NC(=O)Nc2ccc3c(c2)C(=O)N([C@H](C)CO)C[C@H](C)[C@H](CN(C)C(=O)Nc2ccc(OC)cc2)OCCCC[C@H](C)O3)cc1
    24 | 6
- CN(C)C(=O)C[C@H]1CC[C@@H](NS(=O)(=O)c2ccccc2)[C@@H](CO)O1
    -11 | -9

# Screens as filed in PubChem BioAssay.

# Not all compounds are listed, so the mix of outcomes need not match the whole.
